Menin-MLL FL inh – inhibitors of human menin-MLL interaction, wild-type MLL peptide; Fluorescence polarization, fluorescein-MLL peptide displacement from menin; FP activity change, % at 61.4 µM; 290,000 tested, under 10 active; AID 1766; inconclusive = falling polarisation curve, or a change in total fluorescence; inactive = total fluorescence flat and polarisation flat or rising; no compound was filed as active; the % refers to the polarisation; negative = inhibition;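 further: % of control where 0% means no effect; inhibitors lower the polarisation; unlabelled MLL peptide was the positive control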
gsp antagonist – antagonizes gsp, the McCune-Albright syndrome mutation; gsp-mutant cells, cAMP HTRF, 30 min; control for the full effect not named in the record; Potency, µM (titrated, usually from 76.9 µM), inactives show at the highest dose activity change, negative = inhibition, usual class: inhibitors; 340,000 tested, 0.4% active; active = falling curve of any shape with a large fitted effect; inconclusive = falling curve, mostly with a smaller effect; inactive = flat or rising curve; cell line not stated here;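 further: intracellular cAMP measured with PDE inhibitor Ro 20-1724 present during compound exposure; potency means the concentration at half of the fitted maximal effect; on the % scale 0 is the no-effect control and ±100 the full control effect; nearly all actives have a fitted effect of over 65% in size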
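HTRF cAMP read-out (cAMP-d2 plus anti-cAMP antibody-K in lysis buffer, 30 min RT). Before lysis, cells are exposed to compounds with […] for 30 min at 37C in DPBS containing Ca/Mg, BSA and Tween 20.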
PINK1 modulator – modulators of PINK1 expression. PINK1 immunofluorescence, high-content cytometry, 24 h. 410,000 tested, 0.2% active. Potency, µM (top dose mostly 76.6 µM), without a hit: at the highest dose activation (PINK1 increase), usual class: activators; active = well fitted activation curve with a large enough effect; inconclusive = small, poorly fitted or top-dose-only effect; inactive = flat fitted curve, though single readings scatter; cell line not stated here;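 further: potency means the concentration at half of the fitted maximal effect; % of control where 0% means no effect; nearly all actives have a fitted effect of over 65% in size; a mitochondrial uncoupler was the plate control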
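Fluorescence from anti-PINK1 antibody, together with nuclear and cell stains, was scanned on a laser-scanning cytometer. Before staining, stable-line cells were incubated 24 hours with compounds at 5 concentrations; primary antibody 12 h at 10 degrees C.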
Sfp inh – blocks B. subtilis Sfp PPTase activity; Q9F4F7; Biochemical Sfp PPTase activity, qHTS; Potency, µM, without a hit: max response, negative = inhibition, usual class: inhibitors; 310,000 tested, 3.5% active; AID 1490; active means well fitted inhibition curve with a large enough effect; inconclusive means small, poorly fitted or top-dose-only effect, or another doubt; inactive means no such curve, though single readings can be large or run the other way;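 further: the enzyme is Sfp with the accession as filed and its product quenches rhodamine fluorescence; potency means the concentration at half of the fitted maximal effect; 0% = enzyme reaction without inhibitor and -100% = no enzyme wells; top concentration of the series not given in the record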
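Step 1, compound plus 15 nM Sfp-PPTase, 15 min, room temperature. Step 2, add rhodamine-CoA (5 uM) and BHQ-2-YbbR (12.5 uM). Step 3, read 525/598 nm fluorescence at 0 and 30 min.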
gsp ag – gsp mutant agonism; gsp mutant cells, cAMP HTRF, 30 min; control for the full effect not named in the record; AID 624287; 340,000 tested, 0.13% active; Potency, µM (doses to about 76.9 µM), for the others: at the highest dose activation (cAMP increase), most hits filed as activators; active = well fitted activation curve with a large enough effect; inconclusive = small, poorly fitted or top-dose-only effect, or another doubt; inactive = no such curve, though single readings can be large or run the other way; cell line not stated here;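 further: phosphodiesterase inhibitor Ro 20-1724 added with compounds to block cAMP breakdown; potency means the concentration at half of the fitted maximal effect; nearly all actives have a fitted effect of over 60% in size; about a fifth of the inactives were tested at one dose only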
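Cells in DMEM/10% FBS with G418 were pretreated with compounds in DMSO plus […] (300 uM stock) for 30 min at 37C. cAMP was measured by HTRF (cAMP-d2 plus anti-cAMP antibody-K) after 30 min at room temperature.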
D2 ag – human D2 receptor agonism in beta-arrestin assay. P14416. DiscoveRx PathHunter D2 beta-arrestin, luminescence, 90 min; 100% = 57 uM dopamine signal. activation, % (test concentration not listed). 360,000 tested, 0.084% active; in the data active = activation above about 40%; inconclusive = about 15% to 40%; inactive = below about 15%; further: compound concentration not given in the record; the text of the record calls up to 30% inactive
Target sequence (P14416 whole entry, looked up): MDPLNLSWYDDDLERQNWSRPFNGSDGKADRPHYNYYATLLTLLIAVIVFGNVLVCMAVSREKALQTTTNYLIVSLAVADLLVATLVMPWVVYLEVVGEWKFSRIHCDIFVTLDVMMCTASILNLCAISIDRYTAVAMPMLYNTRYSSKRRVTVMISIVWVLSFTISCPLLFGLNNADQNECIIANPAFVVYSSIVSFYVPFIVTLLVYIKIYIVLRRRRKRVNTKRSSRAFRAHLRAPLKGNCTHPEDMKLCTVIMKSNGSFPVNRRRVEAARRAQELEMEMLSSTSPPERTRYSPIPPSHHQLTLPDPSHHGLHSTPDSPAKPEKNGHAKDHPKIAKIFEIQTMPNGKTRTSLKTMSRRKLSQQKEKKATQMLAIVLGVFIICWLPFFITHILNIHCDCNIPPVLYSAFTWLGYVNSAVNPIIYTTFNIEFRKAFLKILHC
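DiscoveRx PathHunter D2 beta-arrestin cells (2,100/well) attached overnight, then compound-stimulated 90 min at 37 C in HBSS/10 mM HEPES/0.1% Tween-20 buffer; beta-galactosidase complementation read by luminescence after 1 h at ambient temperature. Dopamine 57 uM final (EC100) as control.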
ClpP mod – qHTS Assay for Activators of ClpP; ATP-dependent Clp protease proteolytic subunit (Bacillus subtilis (strain 168)), P80244; purified B. subtilis ClpP, FRET peptide cleavage, 20 min; Potency, µM (top dose mostly 57.5 µM), inactives show top-dose activity change, negative = active; 340,000 tested, 1.9% active; AID 651965, 2013; active = well fitted falling curve with a large enough effect; inconclusive = small, poorly fitted or top-dose-only effect; inactive = no such curve, though single readings can be large or run the other way; further: potency means the concentration at half of the fitted maximal effect; the source files actives as falling curves though it sought activators and does not explain the sign; nearly all actives have a fitted effect of over 65% in size; many hits overshoot -100%
Target sequence (P80244 whole entry, looked up): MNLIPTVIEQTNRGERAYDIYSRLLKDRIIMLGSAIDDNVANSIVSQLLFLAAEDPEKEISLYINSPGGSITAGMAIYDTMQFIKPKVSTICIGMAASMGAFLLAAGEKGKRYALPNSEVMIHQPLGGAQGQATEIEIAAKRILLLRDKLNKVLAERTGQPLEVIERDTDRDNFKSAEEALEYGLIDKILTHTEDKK
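Buffer: 100 mM Tris/HCl pH8, 100 mM KCl, 0.05% low protease BSA, 2.5% glycerol, 0.01% Tween-20. ClpP 10 microg/mL final; 20 min RT; delta FRET normalized to ADEP and DMSO controls.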
An asterisk follows results filed as active; ? = inconclusive; / = not tested or not shown; & = joins results of further samples; [ ] = another dose, or the depositor's remark.

SMILES	Menin-MLL FL inh	gsp antagonist	PINK1 modulator	Sfp inh	gsp ag	D2 ag	ClpP mod
CN1CCc2c(sc(NC(=O)Cc3ccc(F)cc3)c2C(N)=O)C1	-1.6	0%	-0.2%	8%	-3%	3.0	-0.2%
Cc1ccc(S(=O)(=O)N(CC(=O)N/N=C/c2ccco2)c2cc(Cl)cc(Cl)c2)cc1	2.4	-14%	?	23%	-42%[inhibitor]	8.0	0.5%
O=C(CS(=O)c1cccc(C(F)(F)F)c1)Nc1ccc(Cl)cc1Cl (stereo unspecified)	-1.8	-7%	3.6%	3%	-8%	-1.8	-0.1%
COc1ccccc1NC(=O)CN1C(=O)COc2ccc(C)cc21	0.3	-7%	-1.3%	14%	27%[15.4 µM]	-1.4	0.1%
Cc1c(NC(=O)c2cccs2)cccc1[N+](=O)[O-]	-6.8	-9%	-0.8%	33%[activator]	-2%[15.4 µM]	-4.4	/
O=C(Nc1cccc(Oc2ccc(C(=O)O)c(C(=O)O)c2)c1)c1ccc(-c2ccccc2)cc1	2.8	11%	0.2%	0%	-18%	-1.6	-1.9%
COc1cc(/C=C/CO)cc(OC)c1OC/C=C(\C)CCC=C(C)C	1.3	-9%	4.7%	14%	?	4.0	0.0%
Cc1cccc(-c2noc(-c3csc([C@@H]4C[C@H](O)[C@@H](CO)O4)n3)n2)c1	/	/	1.6%	/	/	-2.0	-1.2%
C/C=C\C=C\C(=O)N1CC2(CC(c3cccc(NC(=O)CC)c3)=NO2)C[C@H]1C(N)=O (stereo partly specified)	3.6	13%	2.7%	35µM*	22%	-1.2	-1.6%
Cc1cc(=O)n2nc(N3CCC(C(=O)NCc4cccc(Br)c4)CC3)sc2n1	/	-8%	2.0%	13%	?	11	-1.7%
CC1=C(C(=O)N(C(C)C)C(C)C)CC(CC(=O)NC(c2ccccc2)c2ccccc2)C(=O)N1Cc1ccc(F)cc1 (stereo unspecified)	/	/	-0.1%	/	/	-2.8	2.1%
COc1ccc(/C=N/Nc2nc3ccccc3o2)cc1O	3.7	3%	-3.7%	?	-22%	0.6	-5.2%
CCCNC(=O)C1CC2Cn3c(nc4ccccc43)C2N1C (stereo unspecified)	/	9%	-1.1%	/	-21%	-3.8	-2.7%
O=C(NNC1=NS(=O)(=O)c2ccccc21)c1ccc(Cl)cc1	-5.6	9%	-2.4%	22%	6%	-1.3	1.6%
O=C(CN1CCCC1)Nc1ccc(Br)cc1[N+](=O)[O-]	-2.6	2%	1.4%	-2%	0%	-2.5	1.1%
Cc1cc(C)c(S(=O)(=O)Nc2ccc(Cl)cn2)c(C)c1	-2.8	0%	4.1%	25%	-9%[15.4 µM]	4.8	-1.4%
O=C(Nc1cccc(C(F)(F)F)c1)c1ccc2sc([C@H]3C[C@H](O)[C@@H](CO)O3)nc2c1	/	/	0.8%	/	/	7.2	-2.8%
O=C(Nc1ncc(Cc2cccc(C(F)(F)F)c2)s1)C1CCCO1 (stereo unspecified)	2.9	13%	0.4%	5%	-34%[inhibitor]	-0.3	-1.0%
CCOc1ccccc1NC(=O)C1CCCN(S(=O)(=O)c2ccc3c(c2)CCCN3C(C)=O)C1 (stereo unspecified)	/	/	0.9%&-0.4%	/	-60%[inhibitor]	-1.7	1.1%&1.5%
COc1ccccc1N(Cc1ccccc1)S(=O)(=O)c1cccc(C(=O)NC2CC(C)(C)NC(C)(C)C2)c1	/	6%	-1.9%	/	6%	-5.8	1.9%
CC(C)(C)OC(=O)N1CCCC(C(=O)CC#N)C1 (stereo unspecified)	?	-28%	0.4%	19%	13%	-1.8	-9.4%
O=C(N(c1ccccc1)c1ccccc1)N(c1ccccc1)c1ccccc1	-0.8	-10%	3.3%	-21%	17%	-4.1	0.0%
CCOC(=O)c1ccc(S(=O)(=O)N2CCC(C(=O)NCC3COc4ccccc4O3)CC2)cc1 (stereo unspecified)	/	/	3.5%	/	-69%[inhibitor]	-3.9	1.5%
Cc1ccc(S(=O)(=O)N[C@H](C(=O)NC2CCC(C)CC2)C(C)C)cc1 (stereo partly specified)	/	-3%	4.5%	/	8%	-1.7	0.8%
O=C(CN(Cc1ccccc1)C(=O)c1csnn1)NCc1ccccc1	-2.1	5%	0.6%	19%	2%[15.4 µM]	-5.6	-1.1%
Cc1nnc(SCC(=O)Nc2ccccc2)[nH]c1=O	?	3%	10%[38.3 µM]	8%	-3%	-1.1	-1.2%
O=C(Nc1ccc2c(c1)CCC2)Nc1ccc2c(c1)OCO2	2.4	10%	2.9%	-1%	-10%	2.7	-0.5%
O=C(Nc1cccc(C(=O)N2CCCC2)c1)C1CCCCC1	/	13%	-0.6%	/	/	0.2	1.2%
CCN(CC)S(=O)(=O)c1ccc(OC)c(NC(=O)CCS(=O)(=O)Cc2ccccc2)c1	4.6	7%	2.3%	5%	2%[15.4 µM]	-5.2	-0.6%
Cc1onc(C(=O)NN)c1-c1csc(COc2ccccc2)n1	2.6	-10%	-0.4%	2%	-19%	3.2	-0.1%
O=c1[nH]cnc2sc3c(c12)CCCC3	1.7	1%	-8.0%[38.3 µM]	-8%	28%	-3.2	-4.8%
Cc1cc(NC(=O)CSc2nnc(-c3ccccc3)c(-c3ccccc3)n2)no1	-6.7	-9%	2.0%	13%	14%[15.4 µM]	0.6	/
O=C(COC(=O)c1ccc(Cl)c(S(=O)(=O)N2CCCCC2)c1)NCC1CCCCC1	/	-20%	-1.6%	/	-31%[inhibitor]	-1.4	0.1%
CCOC(=O)N1CCN(C(=O)c2cc3c(=O)n4ccccc4nc3s2)CC1	/	17%	2.2%	15%	?	-4.2	?
Cc1cc(C)n2ncc(C(=O)O)c2n1	4.8	-10%	0.1%	-1%	4%[15.4 µM]	-6.3	0.4%
O=S(=O)(NCC(c1ccco1)N1CCN(c2ccccc2)CC1)c1ccc(F)cc1 (stereo unspecified)	3.7	-30%	3.0%	7%	-9%	-0.7	-3.0%
Cc1ccc(C(=S)N2CCCCCC2)cc1	5.8	1%	3.1%	45µM*	9%[15.4 µM]	-5.1	-0.4%
C[C@H](NC(=O)c1cc2cc(Cl)ccc2n1C)C(=O)N1CCC[C@H]1C(=O)O	3.6	9%	1.2%	10%	/	-4.4	4.7%
CN(CC(=O)Nc1ccc2c(c1)OCCO2)S(=O)(=O)c1ccc(Br)s1	4.7	-10%	-2.5%	10%	14%	-1.3	-5.8%
O=[N+]([O-])c1ccc2nc(-c3ccccc3)oc2c1	2.3	-12%	-1.2%	12%	-2%	5.9	-4.8%
CN(CC(=O)NCCc1ccccc1)S(=O)(=O)c1ccccc1	-1.9	-11%	-1.1%	21%	12%[15.4 µM]	-7.9	-10%
CSc1ccccc1NC(=O)c1cccc(S(=O)(=O)N2CCN(C)CC2)c1	/	12%	-3.4%	6%	?	-6.9	-3.4%
CC(C)(C)c1nnc2sc(SCC(=O)c3ccc(Cl)cc3)nn2c1=O	?	-12%	5.3%[38.3 µM]	?	8%	-1.8	0.1%
COc1ccccc1C(=O)NNC(=O)C1CC=CCC1 (stereo unspecified)	1.8	4%	-1.4%	10%	-62%[inhibitor]	-3.6	/
N#Cc1c(NCCN)nc(NCc2ccccc2)c2c1CCN(Cc1ccccc1)C2	-1.5	-4%	1.2%	-29%	6%	-1.1	29%
CC(=O)c1ccccc1OCC(O)Cn1ccnc1 (stereo unspecified)	-15	3%	0.6%	19%	29%	0.1	-3.3%
CC#CCCC(=O)N1C=Cc2ccccc2C1C#N (stereo unspecified)	6.1	0%	-0.9%	11%	0%	-4.5	-1.2%
CN(NC1OC(=O)c2ccccc21)c1ncc(Cl)cc1C(F)(F)F (stereo unspecified)	3.9	11%	-0.3%	9%	21%[15.4 µM]	1.8	/
COc1ccc(C(=O)C2CCN(C(=O)Nc3ccc(C)cc3)CC2)cc1	6.3	-11%	2.4%	4%	0%[15.4 µM]	0.5	0.6%
Cc1nn(S(=O)(=O)N2CCCCC2)c(C)c1Br	-0.4	?	18%[38.3 µM]	11%	-5%	-1.4	-2.6%
O=C(c1ccccc1)c1ccc2nc(-c3ccco3)c(-c3ccco3)nc2c1	15	-12%	-1.0%	7.1µM*	-16%[15.4 µM]	13	/
Cn1c(SCC(=O)N2CCCCCC2)nc2c(c1=O)SCC2	/	-6%	4.2%	-2%	1%	-0.2	-1.0%
COc1ccc(NC(=O)Nc2ccc(OCc3ccccc3)cc2)cn1	?	12%	8.0%	3%	?	-0.1	-1.3%
O=C(C1=C(O)C(=O)N(Cc2ccco2)C1c1cccnc1)c1cc2ccccc2o1 (stereo unspecified)	4.7	4%	2.9%	?	13µM*	1.5	-4.1%
COc1ccc(CC(O)CC2c3c(cc4c(c3OC)OCO4)CCN2C)cc1 (stereo unspecified)	7.7	9%	-1.4%	7%	12%	-1.0	1.9%
COc1ccc(N(Cc2ccccc2)N=O)cc1	2.0	10%	2.2%	18%	-21%	0.7	/
Cc1ccc(S(=O)(=O)N2C[C@H]3[C@H]4C(=O)N(c5ccccc5)C(=O)[C@H]4C[C@H](OC(=O)Nc4c(C)noc4C)[C@@]3(O)C2)cc1	/	/	4.1%	/	13%	-8.0	-0.3%
O=S(=O)(c1cnccc1N1CCN(CCO)CC1)N1CCCCC1	/	9%	1.5%	8%	1%[15.4 µM]	-5.4	0.1%
O=C(O)c1ccc2oc(=O)c(S(=O)(=O)c3ccccc3)cc2c1	7.4	0%	1.1%	16%	19%	-8.0	-9.0%
Cc1ccccc1Nc1nc(Cl)nc(NC(C)(C)C)n1	/	/	9.0%	/	-53%[inhibitor]	-1.3	1.7%

Carrying on.
SMILES	Menin-MLL FL inh	gsp antagonist	PINK1 modulator	Sfp inh	gsp ag	D2 ag	ClpP mod
Cc1ccc([C@H]2N[C@]3(CCCN(Cc4cccn4C)C3=O)[C@H]3C(=O)N(C)C(=O)[C@@H]23)cc1	/	/	1.8%	/	16%	-7.8	-1.4%
COc1ccccc1C(=O)NNC(=O)c1ccc(C)cc1	4.4	7%	-0.6%	7%	7%[15.4 µM]	-0.8	0.9%
CC(C)c1nc(SCC(=O)Nc2nc3c(s2)CCCC3)c2ccccc2n1	0.9	2%	/	1%	?	-0.6	0.8%
CCn1c(=O)n(CC)c2cc(N3CCCC3)c(NC(=O)c3cccc(Cl)c3)cc21	5.3	?	-1.5%	-13%	?	-2.8	-1.0%

Bioassay records (PubChem BioAssay)
